# Sfp inh = blocks B. subtilis Sfp PPTase activity; Biochemical Sfp PPTase activity, qHTS; Potency, µM, for the others: max response, negative = inhibition, actives largely listed as inhibitors; hit rate 3.5% among 310,000; AID 1490; active means well fitted inhibition curve with a large enough effect; inconclusive means small, poorly fitted or top-dose-only effect, or another doubt; inactive means no such curve, though single readings can be large or run the other way;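 further: the enzyme is Sfp with the accession as filed and its product quenches rhodamine fluorescence; potency means the concentration at half of the fitted maximal effect; 0% = enzyme reaction without inhibitor and -100% = no enzyme wells; top concentration of the series not given in the record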
#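 With Hepes-Na pH 7.6 buffer containing 10 mM MgCl2, Sfp (15 nM) modified BHQ-2-YbbR (12.5 uM) using rhodamine-CoA (5 uM). Two reads 30 minutes apart at 525/598 nm yielded each well's rate.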
# TRPV1 PAM = potentiators of human vanilloid receptor 1 (TRPV1) | Q8NER1 | TRPV1-expressing cells, Fluo-8 calcium influx, capsaicin EC20 potentiation; host cell line not named in the record; control for the full effect not named in the record | potentiation, % at 8.33 µM | hit rate 0.02% among 320,000; active means potentiation above 80%; inconclusive means 30% to 80%; inactive means below 30%; further: 0% is about no effect
#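 Cells expressing TRPV1 were dye-loaded with Fluo-8 and read kinetically: 10 s baseline, 3 min after compound (agonist portion), then 2 min after EC20 capsaicin (allosteric enhancer portion). Calcium-bound dye fluorescence at 480/520 nm.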
# gsp antag = gsp mutant antagonism; gsp-mutant cells, cAMP HTRF, 30 min; control for the full effect not named in the record; Potency, µM (highest dose often 76.9 µM), for inactives: top-dose activity change, negative = inhibition, hits mostly inhibitors; hit rate 0.4% among 340,000; active = falling curve of any shape with a large fitted effect; inconclusive = falling curve, mostly with a smaller effect; inactive = flat or rising curve; cell line not stated here;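 further: intracellular cAMP measured with PDE inhibitor Ro 20-1724 present during compound exposure; potency means the concentration at half of the fitted maximal effect; on the % scale 0 is the no-effect control and ±100 the full control effect; nearly all actives have a fitted effect of over 65% in size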
#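 HTRF cAMP read-out (cAMP-d2 plus anti-cAMP antibody-K in lysis buffer, 30 min RT). Before lysis, cells are exposed to compounds with […] for 30 min at 37C in DPBS containing Ca/Mg, BSA and Tween 20.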
# gsp agonist = activates gsp, the McCune-Albright syndrome mutation; hit rate 0.13% among 340,000; Potency, µM (highest dose often 76.9 µM), for inactives: top-dose activation (cAMP increase), actives largely listed as activators; gsp mutant cells, cAMP HTRF, 30 min; control for the full effect not named in the record; active = well fitted activation curve with a large enough effect; inconclusive = small, poorly fitted or top-dose-only effect, or another doubt; inactive = no such curve, though single readings can be large or run the other way; cell line not stated here;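 further: phosphodiesterase inhibitor Ro 20-1724 added with compounds to block cAMP breakdown; potency means the concentration at half of the fitted maximal effect; nearly all actives have a fitted effect of over 60% in size; about a fifth of the inactives were tested at one dose only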
#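 Cells stably selected in G418 were plated at 2000/well, grown 16-24 hr, then given compounds in DMSO with the PDE inhibitor […] (300 uM solution added) for 30 min at 37C; cAMP was read by HTRF.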
# ClpP mod = qHTS Assay for Activators of ClpP; ATP-dependent Clp protease proteolytic subunit (Bacillus subtilis (strain 168)), P80244; purified B. subtilis ClpP, FRET peptide cleavage, 20 min; Potency, µM (top dose mostly 57.5 µM), inactives show at the highest dose activity change, negative = active; hit rate 1.9% among 340,000; AID 651965, 2013; active = well fitted falling curve with a large enough effect; inconclusive = small, poorly fitted or top-dose-only effect; inactive = no such curve, though single readings can be large or run the other way; further: potency means the concentration at half of the fitted maximal effect; the source files actives as falling curves though it sought activators and does not explain the sign; nearly all actives have a fitted effect of over 65% in size; many hits overshoot -100%
# Target sequence (P80244 whole entry, looked up): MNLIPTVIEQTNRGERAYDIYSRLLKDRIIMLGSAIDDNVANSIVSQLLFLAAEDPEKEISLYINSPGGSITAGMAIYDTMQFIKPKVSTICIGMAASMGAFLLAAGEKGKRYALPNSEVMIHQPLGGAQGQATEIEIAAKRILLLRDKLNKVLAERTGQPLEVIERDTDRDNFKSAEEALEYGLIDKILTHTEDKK
#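 Buffer: 100 mM Tris/HCl pH8, 100 mM KCl, 0.05% low protease BSA, 2.5% glycerol, 0.01% Tween-20. ClpP 10 microg/mL final; 20 min RT; delta FRET normalized to ADEP and DMSO controls.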
# Menin MLL FP FL = menin-MLL binding inhibition, fluorescein peptide | Fluorescence polarization, fluorescein-MLL peptide displacement from menin | FP activity change, % at 61.4 µM | 290,000 tested, under 10 active | AID 1766; inconclusive = falling polarisation curve, or a change in total fluorescence; inactive = total fluorescence flat and polarisation flat or rising; no compound was filed as active; the % refers to the polarisation; negative = inhibition;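 further: % of control where 0% means no effect; inhibitors lower the polarisation; unlabelled MLL peptide was the positive control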
# TRPML1 inh = blocks the human TRPML1 channel; TRPML1-inducible cells, Ca2+ dye fluorescence, FDSS; stronger effect = lower value; inhibition of EC80 agonist-evoked calcium signal; activity change, negative = inhibition, % (concentration not given with the values); AID 624415; hit rate 0.02% among 390,000; in the data active means activity change below about -50%; inconclusive means about -30% to -50%; inactive means above about -30%;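 further: stimulus is agonist 54-4 at its EC80 concentration; on the % scale 0 is the no-effect control and ±100 the full control effect; compound concentration not given in the record; the text of the record puts the active cut at -80%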
# Target sequence (Q9GZU1 whole entry, looked up): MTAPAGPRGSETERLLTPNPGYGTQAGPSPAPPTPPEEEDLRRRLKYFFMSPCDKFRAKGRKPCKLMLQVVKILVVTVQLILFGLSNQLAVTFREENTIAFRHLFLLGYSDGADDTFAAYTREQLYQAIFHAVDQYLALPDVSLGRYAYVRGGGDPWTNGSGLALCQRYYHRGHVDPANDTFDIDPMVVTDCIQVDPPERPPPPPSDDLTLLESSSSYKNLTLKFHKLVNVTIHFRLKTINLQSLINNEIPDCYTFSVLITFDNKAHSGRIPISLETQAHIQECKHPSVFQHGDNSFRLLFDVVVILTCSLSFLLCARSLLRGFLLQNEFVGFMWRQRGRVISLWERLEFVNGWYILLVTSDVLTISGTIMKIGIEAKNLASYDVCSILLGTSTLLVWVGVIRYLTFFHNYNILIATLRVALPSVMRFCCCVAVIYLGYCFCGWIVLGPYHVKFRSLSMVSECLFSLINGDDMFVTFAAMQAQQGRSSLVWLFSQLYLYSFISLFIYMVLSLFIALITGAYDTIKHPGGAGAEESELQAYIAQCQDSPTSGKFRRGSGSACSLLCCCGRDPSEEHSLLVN
#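 TRPML1-DL cells, Tet-induced overnight (~16 h, 37 °C) at 1,500 cells/well, were loaded with Ca8 no-wash dye plus quencher for 45-90 min at room temperature. Compounds were pinned during FDSS kinetic reading; agonist 54-4 at EC80 (4 uM final) then added.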
# An asterisk follows results filed as active; ? = inconclusive; / = not tested or not shown; & = joins results of further samples; [ ] = another dose, or the depositor's remark.
SMILES,Sfp inh,TRPV1 PAM,gsp antag,gsp agonist,ClpP mod,Menin MLL FP FL,TRPML1 inh
Cc1ccc(CN(Cc2ccco2)C(=O)c2ccco2)cc1,7%,-4,-3%,?,-0.2%,-1.7,10
C[C@@H]1C[C@H]2[C@@H]3C[C@H](F)C4=CC(=O)C=C[C@]4(C)[C@@]3(F)[C@@H](O)C[C@]2(C)[C@@]1(O)C(=O)CO,5%,9,-15%,/,1.3%,-0.3,-12
CCCc1nc2ccccc2c(C(=O)N(CC)CC(=O)NCc2cccs2)c1CC,/,4,0%,34%[15.4 µM],/,/,18
CCCCc1n[nH]c(=S)n1Cc1ccc(C)cc1,-5%,5,-5%,-2%[15.4 µM],/,0.4,15
Cc1cccc(OCC(=O)NCCN2CCOCC2)c1,-1%,19,-3%,-5%,0.2%,-0.5,-25
COc1ccc(C2C(C#N)=C(N)Oc3cc(O)ccc32)cc1OC (stereo not given),-6%,2,5%,-25%,-0.9%,15,-16
COc1ccc(-c2cccc(-c3nc4ccc(Cl)cn4c3NC3CCCCC3)c2)cc1,/,/,3%,-18%,?,/,12
COc1ccc(-n2nnc3c(SCC(=O)N4CCCc5ccccc54)ncnc32)cc1,/,/,4%,0%[15.4 µM],/,/,45
C=CCNC(=O)c1cc2cccc(OC)c2oc1=O,10%,-10,1%,3%[15.4 µM],/,3.0,14
CC1=NN(c2ccc(C(F)(F)F)cn2)C(=O)C1,-2%,9,-3%,1%,/,-1.2,-6
NC(=O)c1ccc(N2CCOCC2)nc1,6%,14,15%,-3%,-1.7%,-1.1,-11
COc1cccc(Oc2c(C)oc3c(CN4CCCC4)c(O)ccc3c2=O)c1,26%,-8,9%,21%,3.5%,-1.4,-11

# Entries from the list above that contain fluorine:
SMILES,Sfp inh,TRPV1 PAM,gsp antag,gsp agonist,ClpP mod,Menin MLL FP FL,TRPML1 inh
C[C@@H]1C[C@H]2[C@@H]3C[C@H](F)C4=CC(=O)C=C[C@]4(C)[C@@]3(F)[C@@H](O)C[C@]2(C)[C@@]1(O)C(=O)CO,5%,9,-15%,/,1.3%,-0.3,-12
CC1=NN(c2ccc(C(F)(F)F)cn2)C(=O)C1,-2%,9,-3%,1%,/,-1.2,-6

# Remaining list, next part:
SMILES,Sfp inh,TRPV1 PAM,gsp antag,gsp agonist,ClpP mod,Menin MLL FP FL,TRPML1 inh
O=C(NCc1ccco1)c1cc(-c2ccccc2)nn1CC1CC(c2cccnc2)=NO1 (stereo not given),/,/,-13%,/,-0.2%,/,-12
COc1ccccc1N1CCN(C(=O)CNC(=O)Cn2cnc3sc(C)c(C)c3c2=O)CC1,-5%,7,5%,?,/,0.3,13
CC(C)CNC(=O)CC(c1ccccc1)c1ccccc1,7%,-2,/,2%[15.4 µM],/,-1.1,10
CC1CC(C)CN(C(=O)c2cc(S(=O)(=O)N3CCCCC3)ccc2Cl)C1 (stereo not given),/,-13,-13%,-21%,-0.2%,/,-13
Cc1cnc(NC(=O)C(C)N2CCN(C)CC2)s1 (stereo not given),?,8,4%,-89%[inhibitor],1.2%,-3.8,-4
COc1ccc(NC(=O)COc2nsnc2N2CCCCC2)cc1,?,5,-9%,?,-2.3%,4.8,7
COc1cc(C(=O)OCC(=O)NC2CCS(=O)(=O)C2)ccc1OCc1c(C)noc1C (stereo not given),8%,4,11%,8%,-3.9%,6.4,-4
CCOC(=O)C1(Cc2ccc(OC)cc2)CCN(C(=O)c2cc(C)on2)CC1,6%,-20,-1%,-11%,-4.2%,-0.6,-1
O=C(Cn1nc(C(F)F)cc1C(F)F)NNC(=S)Nc1ccc(Cl)cc1,22%,2,2%,12%,0.1%,1.4,-4
CC(SC1=Nc2ccccc2C2CC=NN12)C(=O)NC1(C#N)CCCCC1 (stereo not given),/,-11,-6%,8%,0.9%,/,0
CCOC(=O)c1nc2sc(C)c(C)c2c(=O)[nH]1,13%,/,2%,11%,?,3.6,13
O=C1CN(C(=O)COC(=O)c2cccc(S(=O)(=O)NCc3ccccc3)c2)c2ccccc2N1,3%,-3,25%,?,1.0%,1.0,2
CCCc1cc(C(=O)Nc2ccccc2SC)no1,7%,20,-5%,-30%[inhibitor],2.0%,5.4,-3
O=C(CSc1ccc(-c2ccco2)nn1)NCc1ccccc1,22µM*,-2,3%,?,-13%,0.0,26
CC1CCCCN1S(=O)(=O)c1ccc(C(=O)Nc2nnc(-c3ccccn3)o2)cc1 (stereo not given),5%,14,-10%,3%,/,-1.1,3
O=C(Nc1ccc(O)c(-c2nc3ccccc3o2)c1)C1(c2ccccc2)CCCC1,14%,-3,-9%,20%,-7.5%,-1.0,20
CC(C)CC1(C)NC(=O)N(Cc2cc([N+](=O)[O-])cc3c2OCOC3)C1=O (stereo not given),4%,12,-7%,7%[15.4 µM],/,-0.4,-7
O=C1CCC[C@@H]2C[C@@]3(C[C@@H]4CCN1[C@H]24)Nc1cc(Cl)ccc1NC3=NC1CCCCC1,/,/,-19%,/,0.1%&-1.6%,/,-1
Cc1ccc(NC(=O)C2CC2)cc1S(=O)(=O)N1CCOCC1,/,/,5%,-16%,/,/,1
CCOc1ccc(C2=[N+]([O-])C(C)(C)N(O)C2(C)C)cc1,18%,6,-7%,-62%[inhibitor],-1.4%,-0.4,17
Nc1nc(N)c2cc(S(=O)(=O)c3cccc(C(F)(F)F)c3)ccc2n1,/,/,/,?,4.0%,/,14
Cc1cc(=O)[nH]c(SCC(=O)c2ccc(C)c(C)c2)n1,-2%,-4,-9%,0%,-1.8%,0.4,25
CC(Sc1ncc(C#N)c(N)n1)C(=O)Nc1ccccc1 (stereo not given),-2%,28,8%,10%,-0.7%,1.0,-2
C=CCOc1ccc(NC(=O)C(=O)NCCCn2ccnc2)cc1,15%,-8,1%,10%,4.2%,1.7,16
C=CCn1c(SCC(=O)N(C)C2CCS(=O)(=O)C2)nnc1-c1ccncc1 (stereo not given),7%,15,-12%,-24%,-4.4%,0.9,-10
Cc1ccc(OCC(=O)N2N=C(c3ccncc3)CC2(O)C(F)(F)F)cc1C (stereo not given),23%,6,-6%,-18%,0.8%,1.3,?
COC(=O)C1(C)NC(c2ccc(C)cc2)C2C(=O)N(c3ccc(F)cc3)C(=O)C21 (stereo not given),9%,19,-16%,-35%[inhibitor],1.1%,-0.7,-2
CCCCn1nnnc1NCc1cccc(OC)c1OC,5%,-1,-1%,-5%,-1.8%,3.2,10
O=C(c1cc(COc2ccc(F)cc2Cl)on1)N(Cc1ccncc1)CC1CCCO1 (stereo not given),13%,5,-5%,25%[15.4 µM],/,-2.4,0
CCCCN(CC)S(=O)(=O)c1c(C)[nH]c(=O)[nH]c1=O,6%,-5,1%,23%,/,-3.2,3
C[C@H](N)c1nnc(SCC(N)=O)o1,-20%,1,-5%,?,/,5.2,-15
N=C1C(c2nc3ccccc3s2)=C(O)CN1NC(=O)c1ccc([N+](=O)[O-])cc1,?,-2,-18%,-17%,/,-4.6,-13
CCN(CC)c1ccc(NC(=O)CN2CCN(c3ccccc3F)CC2)cc1,-3%,-12,3%,-13%,-5.0%&-9.0%,2.3,-11&-2
Cc1cc(NC(=O)CSc2nnc(CNC(=O)c3c(F)cccc3F)o2)no1,2%,-6,7%,24%,-0.7%,2.5,-3
CCOc1ccc(S(=O)(=O)N2CCC(C(=O)NCCc3ccc(S(N)(=O)=O)cc3)CC2)cc1,-2%,1,-6%,-3%,-0.3%,8.2,27
COc1cccc(NC(=O)CSc2cccc[n+]2[O-])c1,/,/,-2%,4%,0.7%,/,5

# Shown with values under each structure: entries from further up.
# The line under a structure holds: Sfp inh	TRPV1 PAM	gsp antag	gsp agonist	ClpP mod	Menin MLL FP FL	TRPML1 inh
> Cc1ccc(OCC(=O)N2N=C(c3ccncc3)CC2(O)C(F)(F)F)cc1C (stereo not given)
 : 23%	6	-6%	-18%	0.8%	1.3	?
> CC(Sc1ncc(C#N)c(N)n1)C(=O)Nc1ccccc1 (stereo not given)
 : -2%	28	8%	10%	-0.7%	1.0	-2
> Cc1ccc(CN(Cc2ccco2)C(=O)c2ccco2)cc1
 : 7%	-4	-3%	?	-0.2%	-1.7	10
> CCOc1ccc(S(=O)(=O)N2CCC(C(=O)NCCc3ccc(S(N)(=O)=O)cc3)CC2)cc1
 : -2%	1	-6%	-3%	-0.3%	8.2	27

# (more compounds)
SMILES,Sfp inh,TRPV1 PAM,gsp antag,gsp agonist,ClpP mod,Menin MLL FP FL,TRPML1 inh
O=C(COc1ccc(Cl)c2cccnc12)N1CCOCC1,/,-17,2%,-4%,?,/,3
Cc1nnc2ccc(-c3ccc(NS(C)(=O)=O)cc3)nn12,20%,-1,10%,-22%,/,0.2,4
Cc1ccc(S(=O)(=O)N2CCOCC2)cc1C(=O)Nc1ccc(C(N)=O)cc1,15%,/,11%,-20%,-0.1%,1.1,15
O=C(COC(=O)c1ccccc1)NC12CC3CC(CC(C3)C1)C2,/,-10,13%,-46%[inhibitor],1.7%,/,17
Cn1c(=O)c([N+](=O)[O-])c(NCCc2ccccc2)c2ccccc21,-15%,-12,-16%,-14%[15.4 µM],1.1%,7.5,2
COc1ccc(NC(=O)CN(C)S(=O)(=O)c2ccc(Cl)cc2)c([N+](=O)[O-])c1,9%,-15,1%,-55%[inhibitor],1.0%,15,14
COc1ccc(N2CCN(Cc3cc4c(cc3Br)OCCO4)CC2)cc1,-7%,-4,9%,-4%[15.4 µM],-1.4%,-0.5,13
CN(CC(=O)Nc1ccc(N2CCOCC2)cc1)CC(=O)Nc1ccc(C(F)(F)F)cc1,11%,5,-2%,-7%[15.4 µM],0.1%,-0.6,20
O=C(NCCc1ccc(Cl)cc1)C1CCCO1 (stereo not given),16%,3,5%,-1%[15.4 µM],?,0.3,-3
CCNC(=O)C1CCCN(c2nc(C)cc(C)n2)C1 (stereo not given),20%,3,10%,-30%,4.5%,-0.2,9

# High-throughput results (PubChem BioAssay)
